# NPYLR7 agonist: agonists of mosquito NPYLR7 receptor, primary screen, cell-based, Aedes aegypti, calcium fluorescence, mosquito biting behavior; activation, % at 10 µM; HEK293T NPYLR7/Galpha15, GCaMP6s calcium fluorescence; 270,000 tested, 0.15% active; in the data active = activation above about 40%;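 also: 0% = vehicle and 100% = reference agonist at the receptor; some compounds past the cut are filed as inactive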
# NPYLR7 agonist max-min: further read-out of NPYLR7 agonist, marked with its call; activation, %; measured here: Max-Min RFU normalised activation; some inactives read as strong as hits;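 span of the calcium signal over five minutes; 0% = vehicle and 100% = native peptide agonist; compound fluorescence can raise it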
# Active calls of the source: *; & = joins results of further samples. Some of the compounds tested (hit frequency here may not be typical).
SMILES,NPYLR7 agonist,NPYLR7 agonist max-min
CN(Cc1ccc2nsnc2c1)C(=O)c1cn(CC2CCCNC2)nn1 (centres undefined),5,3
CNC(=O)CSc1nnc(N2CCN(C(=O)COc3ccc(C(C)C)cc3)CC2)s1,-16,-17
Cc1cccc(Cn2cnc3c(cnn3CCO)c2=O)c1,17,8
CCCc1noc(CN2CCCC(OCc3cccnc3)C2)n1 (centres undefined),12,3
O=C(c1ccsc1)N1CCCC(CNC(=O)C2(c3ccc(Cl)cc3)CC2)C1 (centres undefined),-4,8
Nc1c(ONC(=O)c2ccccc2)c(=O)[nH]c2sc3c(c12)CCCC3,6,4
CC(CNC(=O)c1ccc2c(=O)n(-c3ccc(F)cc3)c(N3CCCC3)nc2c1)c1ccccc1 (centres undefined),0,-2
COCCCN(Cc1nc(C(=O)OC)cs1)C(=O)c1ccc(C)c([N+](=O)[O-])c1,-7,5
CC(=O)Nc1ccc(N2C(=O)C3C4c5ccccc5C(c5ccccc54)C3C2=O)cc1 (centres undefined),-3,-11
NC(=O)c1c(NC(=O)CN2CCCCCC2)sc2c1CCC2,2,2
COc1ccc(-n2c(Cc3ccccc3F)n[nH]c2=O)c(OC)c1,0,-2
N#CCCN(Cc1ccco1)C(=O)/C=C(\c1ccccc1)C(F)(F)F,7,8
Cc1[nH]n(-c2ccc([N+](=O)[O-])cc2)c(=O)c1C=NCc1ccco1,-13,-16
CC(C)CN(Cc1c(-c2ccccc2)noc1N1CCSCC1)C(=O)Nc1cccc(Cl)c1,2,6
O=C(NCCc1ccccn1)c1cccc(Nc2c(Oc3ccc4c(c3)CCC4)cnn(-c3ccc(Cl)c(Cl)c3)c2=O)c1,5,4
COc1ccc(OC)c2sc(N(Cc3ccccn3)C(=O)c3ccc([N+](=O)[O-])s3)nc12,2,-3
COC(=O)C1CCN(C(=O)Cc2cc(=O)[nH]c(SCc3ccccc3)n2)CC1,-8,-14
Cc1cc2nc(-c3cccc(NC(=O)c4cc([N+](=O)[O-])ccc4Br)c3)oc2cc1C,11,7
CC(C)(C)CNC(=O)CN1Cc2ccc(Nc3ccc(Cl)cc3)nc2C1=O,9,9
CC1CCC(NCC2CCCc3ccccc32)(P(=O)(O)O)CC1 (centres undefined),0,-2
Cc1ccc(CN(Cc2ccc(F)cc2)C(=O)CN(CC2CCCO2)C(=O)Nc2ccc(C#N)cc2)o1 (centres undefined),0,7
CCCC1=NN(C(C)=O)C(C(=O)N2CCC(N3CCCCC3)CC2)O1 (centres undefined),17,10
Cc1ccc(-c2nn(CC(N)=O)c(=O)c3nc(C)sc23)cc1,11,9
CCOc1ccc(SCC(=O)Nc2nnc(C3CCNCC3)o2)cc1,5,5

# Looked up above:
# O=C(NCCc1ccccn1)c1cccc(Nc2c(Oc3ccc4c(c3)CCC4)cnn(-c3ccc(Cl)c(Cl)c3)c2=O)c1 in NPYLR7 agonist has 5
# O=C(c1ccsc1)N1CCCC(CNC(=O)C2(c3ccc(Cl)cc3)CC2)C1 (centres undefined) in NPYLR7 agonist max-min has 8

# The listing continues:
SMILES,NPYLR7 agonist,NPYLR7 agonist max-min
O=C(Cc1ccc(F)cc1)NCCNc1nc(-c2ccco2)nc2cc(Cl)ccc12,5,11
COc1cccc(-c2cc(C(=O)N3CCc4ccccc4C3)n3nc(C(C)(C)C)cc3n2)c1,12,29
Cc1ccn(-c2ccc(N3CCN(S(=O)(=O)c4cc(C(C)C)ccc4C)CC3)nn2)n1,-2,-6
Cc1[nH]c2ccccc2c1CC(=O)NC(C)c1cn2ccsc2n1 (centres undefined),-2,-5
Cc1nn(Cc2ccccc2Cl)c2sc(C(=O)N3CCN(C(=O)C(C)C)CC3)cc12,8,2
Cc1nc(N(C)C)nc(N(CC(C)C)CC(C)C)n1,8,8
O=C(N=c1sccn1Cc1ccc(C(=O)NCC2CCCO2)o1)c1cccc(Cl)c1 (centres undefined),17,9
CC1(C)C(=O)NCCN1C(=O)CC(c1ccccc1)c1ccc2c(c1)OCO2 (centres undefined),15,0
COc1ccc2c(c1)-c1c(sn(-c3cc(C)ccc3O)c1=S)C(C)(C)N2,2,1
O=C(NC1CCCCC1)C1CCN(CCCS(=O)(=O)c2ccc(F)cc2)CC1,6,5
Cn1cc(C(=O)N2CCNCC2)c2nn(-c3ccccc3)c(=O)c-2c1,-3,-4
O=C1NCCNC12CCN(S(=O)(=O)c1cc(Cl)c(Cl)s1)CC2,12,13

# Structures from the list above that contain a thiophene ring, fused or not, in the order listed:
SMILES,NPYLR7 agonist,NPYLR7 agonist max-min
O=C(c1ccsc1)N1CCCC(CNC(=O)C2(c3ccc(Cl)cc3)CC2)C1 (centres undefined),-4,8
Nc1c(ONC(=O)c2ccccc2)c(=O)[nH]c2sc3c(c12)CCCC3,6,4
NC(=O)c1c(NC(=O)CN2CCCCCC2)sc2c1CCC2,2,2
COc1ccc(OC)c2sc(N(Cc3ccccn3)C(=O)c3ccc([N+](=O)[O-])s3)nc12,2,-3
Cc1nn(Cc2ccccc2Cl)c2sc(C(=O)N3CCN(C(=O)C(C)C)CC3)cc12,8,2
O=C1NCCNC12CCN(S(=O)(=O)c1cc(Cl)c(Cl)s1)CC2,12,13

# More compounds:
SMILES,NPYLR7 agonist,NPYLR7 agonist max-min
COc1ccccc1-n1cc(C(=O)N2CCC3(CCCO3)CC2)cn1,10,6
CCc1nc2n(n1)C(=O)C(C(c1ccc(F)cc1)N1CC(C)CC(C)C1)S2 (centres undefined),-4,-13
Cc1ccccc1C1c2[nH]c3ccccc3c2CCN1C(=O)Cc1nonc1C (centres undefined),-4,-7
COc1ccc([C@@H](C)NCc2c(C(=O)N3CCOCC3)nc3ccccn23)cc1,1&6,2&12
COc1ccc2cnoc(=O)c2c1OC,4,2
Cc1ncccc1OC1(C(=O)NCCc2ccccn2)CCNCC1,4,4
COCCn1c(SCC(=O)Nc2ccccc2F)nc2c([nH]c3ccccc32)c1=O,0,-2
CC1=C(n2nnc3ccccc32)C(c2ccccc2)C(C#N)C(=N)O1 (centres undefined),9,4
CCc1c(C)nn(-c2ccc(C(=O)Nc3ccc4ncsc4c3)cc2)c1C,-8,-10
Cc1ccccc1C(C)NS(=O)(=O)c1ccc(Cl)cc1 (centres undefined),6,1
CCN(CC)c1ccc(NC(=O)CSc2nc3sc(C)c(C)c3c(=O)n2CCOC)cc1,-2,-3
O=C(Cn1cnc2sccc2c1=O)NCc1cccs1,1,8
CC(=O)N1CCC(C(=O)NC(c2ccc(F)cc2)c2nccn2C)CC1 (centres undefined),3,7
COc1cccc(C(C2Sc3ncnn3C2=O)N2CCC3(CC2)OCCO3)c1 (centres undefined),4,3
Cc1ccc(-c2cn[nH]c2C2CCCN(Cc3nccn3C)C2)cc1 (centres undefined),-1,2
O=C(CC1CCS(=O)(=O)C1)OCC(=O)N1c2ccccc2CCc2ccccc21 (centres undefined),4,3
O=C(c1ccon1)N1CCCC(c2cc(=O)[nH]c(Cc3cccs3)n2)C1 (centres undefined),-2,-7
CCCCS(=O)(=O)N(C)Cc1ccc(-c2ccc(Br)cc2)o1,-6,-7
O=S(=O)(NCc1ccsc1-n1cccc1)c1ccccc1Br,8,5
Cc1cccc(Nc2ncccc2C(=O)Nc2ccccc2)c1C,-9,-15
c1ccc(-c2nnc(-c3ccccc3)c(NCc3ccco3)n2)cc1,-14,-14
COc1ccc(OC)c(C2c3cccn3CCCN2Cc2ccccc2F)c1 (centres undefined),-13,-12
Cc1ccccc1C(=O)Nc1ccnn1C1CCN(C(=O)c2n[nH]c3c2CCC3)CC1,0,-4
CC1CN(c2cc(Oc3ccccc3)ncn2)CCN1 (centres undefined),-13,-14
CC(Nc1nc(-c2ccccc2Cl)nc2cc(Cl)ccc12)c1ccccc1 (centres undefined),9,14
COC(=O)c1cccc2c1NC(c1ccc([N+](=O)[O-])cc1)C1CC=CC21 (centres undefined),-4,9
CCc1cc(CN2CCN(c3ncccn3)CC2C(=O)O)[nH]n1 (centres undefined),10,3
O=C(O)C1(O)CCN(c2nccc3ccccc23)CC1,-3,-2
O=C(CN(C1CC1)S(=O)(=O)c1ccc(Br)cc1)N1CCc2sccc2C1c1ccc(Cl)cc1 (centres undefined),-5,-5
CCc1nc(N2CCN(C(=O)Nc3ccc(C(F)(F)F)cc3)CC2)c2ccc(Cl)cc2n1,-9,-6
COC(=O)CN1C(c2ccccc2)=Nc2ccc(Cl)cc2C1c1ccccc1 (centres undefined),-1,-3
O=C(c1ccccc1OC1CCN(Cc2cccc(C(F)(F)F)c2)CC1)N1CCCCC1,-4,-7
Cc1ccccc1OCC(=O)N1CCN(c2ncnc3c2nnn3Cc2ccccc2)CC1,-9,-15
CN(CCCCN1CCOCC1)c1nc2nonc2nc1N1CCCC1,0,-4
CCOC(=O)c1cnn2c(C(=O)O)ccnc12,9,-4
Cc1n[nH]c(C)c1CCC(=O)NN=Cc1c(Cl)cccc1Cl,3,2
COCCNC(=O)C(NC(=O)c1cccs1)C1CCN(C(=O)c2ccc(C(F)(F)F)cc2)CC1 (centres undefined),-2,5
Cc1ccc(-n2nnnc2CNC(=O)Nc2ccc(C(C)(C)C)cc2)cc1C,-2,-3
Cc1cc(=O)oc2cc(CN(Cc3cnn(C)c3)CC(C)C)ccc12,1,-1
Fc1ccccc1-c1nnc2ccc(C(F)(F)F)cn12,3,2
COCCc1noc(-c2ccc(-c3ccc(N)nc3)nc2)n1,5,3
COC(=O)CCC(=O)N1CCC(CCC(=O)Nc2ccccc2)CC1,7,3
CC1CC2(CC(C)(c3csc(N)n3)OC2=O)C(=O)O1 (centres undefined),3,-1
COCCn1cc(NC(=O)N2CCc3ccccc32)c2ccccc21,8,3
CC(C)CN(CCC(=O)NCc1cccc(C(F)(F)F)c1)c1nc(-c2ccco2)nc2cc(Cl)ccc12,18,23
CC(=O)Nc1ccc(NC(=O)CSc2nc3c(c(=O)n2-c2cc(C)cc(C)c2)SCC3)cc1,-3,-7
COCC(c1ccccn1)N(C)CC(=O)NC1CCCCCCC1 (centres undefined),-8,-6
CC(NC(=O)c1coc(CN(Cc2ccccc2)Cc2ccccc2F)n1)c1ccccc1 (centres undefined),18,35
CCOC(=O)CC(=O)CSc1ncnc2c1nnn2-c1ccc(F)cc1,13,16
O=C(CS(=O)CCOc1cccc(Br)c1)NCC1CCCCC1 (centres undefined),16,6
Cc1cccc(-c2cccc(NC(=O)C3CCCN3Cc3ccc(CO)o3)c2)c1 (centres undefined),5,0
Cc1c(C(=O)NCc2ccc3nsnc3c2)cnc2ccnn12,6,0
COC(=O)c1cc(OC)cc2c1OC(CNC(=O)c1ccccc1C)C2 (centres undefined),-5,-7
Cc1ccccc1CN1C(=O)C2(SCCN2C(=O)Nc2ccc(Cl)cc2)c2ccccc21 (centres undefined),-2,3
Cc1cc(C(=O)N2CCC2(C)C(=O)NCCC#N)nn1C (centres undefined),17,16
COc1ccc(Cl)cc1NCC(=O)N1CCc2sccc2C1,2,0
CCOC(=O)C1CCCN(C(=O)CCN(Cc2ccco2)c2nc(Cc3cccc(OC)c3)ns2)C1 (centres undefined),-9,-6
CC1=C(C#N)C(C(F)(F)F)(C(F)(F)F)N=C(c2ccc(C)cc2)N1,8,0
Clc1ccc(CNc2nn[nH]n2)cc1Cl,-1,-2
Cc1ccc(-n2ncc3c(=O)n(NC(=O)c4cccc([N+](=O)[O-])c4)cnc32)cc1,2,-2

# Random excerpt: six compounds from above
SMILES,NPYLR7 agonist,NPYLR7 agonist max-min
CCOC(=O)C1CCCN(C(=O)CCN(Cc2ccco2)c2nc(Cc3cccc(OC)c3)ns2)C1 (centres undefined),-9,-6
Clc1ccc(CNc2nn[nH]n2)cc1Cl,-1,-2
Cc1cccc(-c2cccc(NC(=O)C3CCCN3Cc3ccc(CO)o3)c2)c1 (centres undefined),5,0
CC1=C(C#N)C(C(F)(F)F)(C(F)(F)F)N=C(c2ccc(C)cc2)N1,8,0
Cc1c(C(=O)NCc2ccc3nsnc3c2)cnc2ccnn12,6,0
CCOC(=O)CC(=O)CSc1ncnc2c1nnn2-c1ccc(F)cc1,13,16

# Next part
SMILES,NPYLR7 agonist,NPYLR7 agonist max-min
Cn1cc(NC(=O)C2CC(c3ccccc3)C2)ccc1=O (centres undefined),-13,-17
O=C(NC1CCc2[nH]ncc2C1)c1cccc(CC2CCNCC2)c1 (centres undefined),0,-5
COc1ccc(N(C)S(=O)(=O)c2ccc(OC)c(N3CCN(S(=O)(=O)c4ccc(Cl)c([N+](=O)[O-])c4)CC3)c2)cc1,2,2
CCc1cccc(OCCCN(C)C(=O)c2ccc(=O)n(C)c2)c1,15,-2
COc1ccccc1-n1c(SCc2nc(C(=O)N3CC(C)OC(C)C3)cs2)nnc1-c1ccccc1Cl (centres undefined),-7,-3
O=C1CCCCCc2ccc(cc2)CCC1,1,1
CN(CCc1cnn(C)c1)c1nncc(-c2ccccc2F)n1,19,4
O=c1ccc(-c2ccccc2)nn1CCNc1nncc(-c2ccc3ccccc3c2)n1,-1,-4
CC(C)(O)C#Cc1cccc(-c2n[nH]c(CCc3ccccc3)n2)c1,6,5
COCCN1CC(CN2CCOCC2)Oc2nc(C)ccc2C1=O (centres undefined),-4,6
Cc1cccc(COC(CN2CCN(C(=O)CCC3CCCC3)CC2)c2ccc(Cl)cc2)c1 (centres undefined),3,1
COCCCN(CC(=O)N(Cc1ccccc1)Cc1sccc1C)C(=O)c1ccc(C(F)(F)F)cc1,0,-10
CC(C)(N)c1cn(CC2CCN(C(=O)NC3CCCCCC3)CC2)nn1,4,3
COc1ccc(CC2CN(C/C=C/c3ccccc3)CCO2)cc1 (centres undefined),8,7
O=c1[nH]c(/C(Cl)=C\c2cc(F)ccc2F)nc2ccccc12,-3,-2
CCCCCCCCCCCCCC(=O)N1CCc2nc(Cc3cccc(F)c3)[nH]c(=O)c2C1,-6,-2
CCCCCN(CC(=O)Nc1cc(C(C)(C)C)nn1-c1ccc(C)cc1C)C(=O)c1ccc(CCCC)cc1,0,5
Cc1ccc(NC(=O)CC2Cn3cccc3C2=O)cc1 (centres undefined),11,4

# Screening data from PubChem.
